Source: PubChem (National Center for Advancing Translational Sciences (NCATS))
NS1 inh – qHTS Assay for Inhibitors of Influenza NS1 Protein Function; S. cerevisiae slowed by influenza A NS1, growth recovery by OD600; Potency, µM (series often up to 46.1 µM), inactives show at the top dose activity, positive = more growth; actives 0.4% (n = 270,000); further: actives are rising curves; nearly all actives have a fitted effect of over 50% in size
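OD600 was taken as the measure of yeast growth restored by compound in an NS1-expressing S. cerevisiae strain. Cells had been washed out of glucose medium and diluted 1:100 into galactose -URA medium, pH 6.0.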
Lassa entry inh – qHTS for Inhibitors of binding or entry into cells for Lassa Virus | actives 1.2% (n = 300,000) | Lassa virus pseudotype entry inhibition, cell reporter; control for the full effect not named in the record | Potency, µM (series often up to 37.9 µM), for inactives: at the top dose activity change, negative = inhibition, most hits filed as inhibitors | AID 540256, 2011; active means well fitted inhibition curve with a large enough effect; inconclusive means small, poorly fitted or top-dose-only effect, or effect the other way; inactive means flat fitted curve, though single readings scatter; tested in HEK293 cells; further: on the % scale 0 is the no-effect control and ±100 the full control effect; nearly all actives have a fitted effect of over 50% in size; luciferase read-out
Cruzain Triton – qHTS Assay for Promiscuous and Specific Inhibitors of Cruzain (with detergent) | purified cruzain, Z-FR-AMC fluorescence, 0.01% Triton | AID 1478, 2009 | Potency, µM, inactives show max response, negative = inhibition, actives largely listed as inhibitors | Cruzipain (Trypanosoma cruzi), P25779 | actives 0.43% (n = 200,000); active means well fitted curve in the direction sought with a large enough effect; inconclusive means small, poorly fitted or top-dose-only effect, or another doubt; inactive means no such curve, though single readings can be large; an effect the other way counts as inactive or inconclusive;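 further: plate controls were neutral wells for no effect and buffer without enzyme for full effect; nearly all actives have a fitted effect of over 40% in size; top concentration of the series not given in the record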
Target sequence (P25779 123-467 limits assumed): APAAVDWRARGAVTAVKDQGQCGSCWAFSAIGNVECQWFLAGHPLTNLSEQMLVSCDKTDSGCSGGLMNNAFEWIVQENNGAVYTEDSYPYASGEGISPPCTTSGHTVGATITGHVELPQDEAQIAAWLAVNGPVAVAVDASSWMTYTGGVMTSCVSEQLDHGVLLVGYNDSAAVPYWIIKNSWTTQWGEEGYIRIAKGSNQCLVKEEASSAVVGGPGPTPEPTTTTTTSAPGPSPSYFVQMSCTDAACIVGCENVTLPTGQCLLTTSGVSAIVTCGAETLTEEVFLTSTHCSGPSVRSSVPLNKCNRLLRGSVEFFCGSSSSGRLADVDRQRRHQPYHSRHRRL
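15 min RT preincubation of 1.5 nM cruzain with compound, then 2 uM Z-FR-AMC added; kinetic AMC fluorescence, 60 s delta. Triton X-100 0.01%, pH 5.5.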
SARS PLP yeast – qHTS of Yeast-based Assay for SARS-CoV PLP; S. cerevisiae expressing SARS-CoV PLpro, growth rescue; control for the full effect not named in the record; Potency, µM (top dose mostly 32.9 µM), inactives show top-dose activity, positive = growth rescue; actives 0.19% (n = 330,000); AID 485353, 2010; further: 0% is about no effect; nearly all actives have a fitted effect of over 55% in size; growth read by luminescence after 48 h
RE007 growth inh – qHTS Assay for Inhibitors of the HIV-1 protein Vpr. S. pombe RE007 Vpr strain, BacTiter-Glo ATP luminescence, 24 h; control for the full effect not named in the record. Potency, µM (titrated, usually from 92.2 µM), for the others: at the top dose activity change, negative = less growth. actives 0.21% (n = 360,000); active = well fitted falling curve with a large enough effect; inconclusive = small, poorly fitted or top-dose-only effect; inactive = no such curve, though single readings can be large or run the other way;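 further: on the % scale 0 is the no-effect control and ±100 the full control effect; nearly all actives have a fitted effect of over 50% in size; the assay follows cell death caused by Vpr and the record does not say whether a fall means rescue or toxicity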
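Fission yeast strain RE007, carrying one chromosomally integrated HIV-1 vpr copy, was seeded at OD 0.01 in PMG+AL medium with 23 nL pinned compound. After 24 h at 30 °C and 99% humidity, viability was read by BacTiter-Glo luminescence.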
Cruzain noTriton – qHTS Assay for Promiscuous and Specific Inhibitors of Cruzain (without detergent) | Cruzipain (Trypanosoma cruzi), P25779 | actives 2.3% (n = 200,000) | Potency, µM, inactives show max response, negative = inhibition, most hits filed as inhibitors | purified cruzain, Z-FR-AMC fluorescence, no detergent; active means well fitted curve in the direction sought with a large enough effect; inconclusive means small, poorly fitted or top-dose-only effect, or another doubt; inactive means no such curve, though single readings can be large; an effect the other way counts as inactive or inconclusive;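 further: plate controls were enzyme without inhibitor for no effect and buffer without enzyme for full effect; nearly all actives have a fitted effect of over 40% in size; top concentration of the series not given in the record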
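Purified cruzain at 1.5 nM, pre-incubated 15 min with compound at room temperature in 100 mM sodium acetate pH 5.5, 5 mM DTT, 0.00005% Triton X-100. Reaction started with 2 uM Z-FR-AMC; AMC fluorescence increase over 60 s gives rate.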
StopGo reporter – High Throughput Screening for Foot and Mouth Disease Virus Antivirals; human cells with a luciferase reporter of 2A StopGo recoding; control for the full effect not named in the record; Potency, µM (series often up to 57.9 µM), inactives show at the highest dose signal change, negative = less light; actives 1.2% (n = 410,000); active = well fitted falling curve with a large enough effect; inconclusive = small, poorly fitted or top-dose-only effect; inactive = no such curve, though single readings can be large or run the other way; tested in HEK293T cells; further: on the % scale 0 is the no-effect control and ±100 the full control effect; nearly all actives have a fitted effect of over 45% in size; luciferase light after 4 h
MARV entry inh – qHTS for inhibitors of binding or entry into cells for Marburg Virus | Marburg virus pseudotyped entry inhibition, cell reporter; control for the full effect not named in the record; about a third of the inactives were read at about 46 µM | Potency, µM (series often up to 37.8 µM), for inactives: at the highest dose activity change, negative = inhibition, hits mostly inhibitors | actives 1.8% (n = 300,000); active = well fitted inhibition curve with a large enough effect; inconclusive = small, poorly fitted or top-dose-only effect, or effect the other way; inactive = flat fitted curve, though single readings scatter; tested in HEK293 cells; about a fifth of its hits are not listed in these tables; further: on the % scale 0 is the no-effect control and ±100 the full control effect; luciferase read-out
An asterisk follows results filed as active; ? = inconclusive; nt = not tested or not shown; & = joins results of further samples; [ ] = another dose, or the depositor's remark. Unless noted, the call rests on the fitted dose curve; in most records, active means well fitted rising curve with a large enough effect; inconclusive means small, poorly fitted or top-dose-only effect; inactive means no such curve, though single readings can be large or run the other way. Potency means the concentration at half of the fitted maximal effect.

SMILES	NS1 inh	Lassa entry inh	Cruzain Triton	SARS PLP yeast	RE007 growth inh	Cruzain noTriton	StopGo reporter	MARV entry inh
Cc1cccc(NC(=O)c2ccc3nccnc3c2)n1	-15%	14%[46.1 µM]	nt	-1%	-25%	nt	-3%	?
CN(C(=O)c1ccncc1)c1ccccc1	6%&-2%	nt	3.3%	-1%	nt	1%	-14%	nt
Cc1cccn2c(=O)nc(SCC(=O)N3N=C(c4cccs4)CC3c3ccc(F)cc3)nc12 (centres undefined)	nt	?	nt	1%	3%	nt	?	?
COc1cccc(CN2C(=O)c3ccccc3Sc3ccc(C(=O)N(C)Cc4ccccc4)cc32)c1	nt	?	-4.8%	nt	nt	-23%	8%	?
Cc1cccc(C)c1OCc1n[nH]c(=S)o1	17%	3%	-3.4%	4%	-4%	0%	7%	9%
Nc1ccn(-c2ncc(C(F)(F)F)cc2Cl)c(=O)n1	12%	15%	nt	0%	-14%	nt	8%	5%[46.1 µM]
O=C(NNc1ncnc2c1cnn2-c1ccccc1)c1cccc(Cl)c1	nt	30%[46.1 µM]	-0.1%	nt	nt	1%	-17%	nt
O=C(NCc1ccc(Cl)cc1)c1cc([N+](=O)[O-])ccc1Cl	1%	nt	nt	1%	3%	nt	-27%	nt
Cn1nccc1NC(=O)COCC(=O)O	3%	-8%	nt	1%	-12%	nt	-8%	?
COc1ccc(-c2nc3ccccc3s2)cc1NC(=O)c1cccc([N+](=O)[O-])c1C	nt	1%[46.1 µM]	1.6%	nt	nt	-2%	32%[activator]	?
CC(C)NC(=O)CSc1nc2sccc2c(=O)n1-c1ccccc1	19%	nt	nt	-1%	15%	nt	12%	-1%[46.1 µM]
COC(=O)C1=C(Nc2ccccc2NS(=O)(=O)c2ccc(C(F)(F)F)cc2Cl)CSC1	19%	10%	nt	-1%	0%	nt	-4%	11%[46.1 µM]
COc1ccc(C(=O)NCc2ccc(-n3cccc3)cc2)cc1OC	-6%	nt	nt	1%	-9%	nt	-5%	nt
CCOC(=O)C(CC)n1cnc2c(nnn2-c2ccc(C)cc2)c1=O (centres undefined)	-15%	5%	-5.1%	-3%	16%	-2%	25%	5%
CCn1nc([N+](=O)[O-])c(C(C#N)c2nc3ccccc3n2C)c(Cl)c1=O (centres undefined)	6%	2%	-8.9%	-12%	9%	2%	0%	-28%
O=C(N/N=C/c1cc([N+](=O)[O-])ccc1O)c1ccc2c(c1)OCCO2	3%	?	-9.4%	?	-15%	3%	6%	?
CCOc1ccc(N2CC(C(=O)NCCc3ccc(F)cc3)CC2=O)cc1 (centres undefined)	18%	-16%	nt	0%	-22%	nt	20%	21%[46.1 µM]
Cc1ccc(C)c(NC(=O)CN(C)C(=O)COc2ncnc3sccc23)c1	2%	-5%	1.6%	1%	-3%	21%	-9%	?
Cn1nnnc1SCC(=O)Nc1ccc2c(c1)OCCO2	3%	nt	nt	-2%	3%	nt	22%	nt
O=C(Nc1csc(Cl)c1)c1ccccc1	nt	4%[46.1 µM]	nt	nt	-29%	nt	6%	?
O=C(O)c1ccc(N/N=C/c2c(F)cccc2Cl)cc1	-94%	nt	nt	-2%	-25%	nt	32µM*	nt
CC(OC(=O)CCCN=C1NS(=O)(=O)c2ccccc21)C(=O)Nc1ccccc1F (centres undefined)	nt	11%	nt	-2%	9%	nt	-9%	?
Cc1ccc(O)c(C(=O)c2cc(C#N)c(=O)n(Cc3ccccc3)c2)c1	nt	?	nt	4%	17%	nt	-21%	?
O=C1NC2c3ccccc3C(=O)N2c2c1cnn2-c1ccccc1 (centres undefined)	2%	-28%	0.6%	9%	-5%	7%	-20%	?
Cc1ccc(NC(=O)c2cc(N3C(=O)C=CC3=O)ccc2N2CCOCC2)cc1	-43%	nt	nt	-6%	8.9µM*	nt	?	-3%[46.1 µM]
SMILES	NS1 inh	Lassa entry inh	Cruzain Triton	SARS PLP yeast	RE007 growth inh	Cruzain noTriton	StopGo reporter	MARV entry inh
COc1ccc2cc(-c3cn4c(n3)sc3cc(F)ccc34)c(=O)oc2c1	nt	-6%[46.1 µM]	-0.1%	nt	nt	0%	-5%	nt
O=C1CCCC(O)=C1N=Nc1c(Cl)cc(C(F)(F)F)cc1Cl	5%	2%	nt	-2%	-12%	nt	-15%	2%[46.1 µM]
Cc1ccc(O)c(NC(=O)c2noc3c2CCc2ccccc2-3)c1	nt	10%[46.1 µM]	nt	-4%	6%	nt	41%[activator]	?
CCN1CCN(C(=O)Cc2ccc(C)cc2)CC1	1%	nt	nt	-5%	14%	nt	19%	nt
Cc1ccc(-c2csc(-c3c(N)c(C(=O)c4ccc5c(c4)OCO5)n4ccccc34)n2)cc1C	nt	-11%[46.1 µM]	-3.2%	nt	nt	3.2µM*	7%	-13%[46.1 µM]
Cc1ccc(SCC(=O)NC(=O)NCc2ccco2)cc1C	-23%	nt	-4.8%	-7%	nt	-8%	nt	0%
CC[C@H](C)/C=C(C)/C=C/C1=CC2=CC(=O)[C@]3(C)OC(=O)[C@@H](C(C)=O)[C@@H]3C2=CO1	4%	nt	nt	-1%	13%	nt	-21%	nt
CCOc1ccccc1NC(=S)NC(=O)C1CC1	-18%	?	nt	18%	13%	nt	-16%	12%
CCCSC1=C(C#N)C(c2cc(OC)ccc2OC)CC(=O)N1 (centres undefined)	5%	nt	-3.7%	-5%	-6%	2%	-18%	nt
COCc1cc(C)nc(SCC(=O)Nc2ccc(C)c(C)c2)c1C#N	-6%	?	0.4%	-2%	-3%	4%	29%	26%&26%
COc1cc(C=Nc2cccc(C)c2)c(O)c([N+](=O)[O-])c1	-41%	-10%	-9.7%	-28%	?	-1%	-6%	23%
O=C1CN(O)C(c2ccccc2)=c2cc(Br)ccc2=N1	16%	12%[46.1 µM]	nt	-3%	14%	nt	-3%	-3%[46.1 µM]
CNc1nc(=O)n(C2CCCO2)cc1C (centres undefined)	nt	16%[46.1 µM]	nt	nt	11%	nt	3%	?
O=C(CSc1c(F)c(F)cc(F)c1F)Nc1ccc(C2SCCS2)cc1	-4%	nt	nt	0%	0%	nt	15%	nt
CC(C)OCCCNC(=O)c1ccc2c(=O)n(Cc3ccc4c(c3)OCO4)c(=S)[nH]c2c1	nt	20%	nt	1%	0%	nt	-5%	-1%[46.1 µM]
CNC(=O)CCC(=O)Nc1ccc(C)cc1	4%	0%	nt	0%	7%	nt	-25%	0%
CCOC(=O)c1c(-c2ccccc2)oc2ccc(OCC(=O)NN)cc12	?	nt	nt	6%	0%	nt	-4%	nt
CCn1c(C(C)NC(=O)c2cccc(C)c2)nc2ccccc21 (centres undefined)	-23%	nt	-0.9%	-7%	3%	-16%	-15%	nt
CCOc1ccc(N=C2NC(=O)C(CC(=O)O)S2)cc1 (centres undefined)	-15%	16%	11%	2%	5%	5%	31%[activator]	?
O=C(C1CCN(C2CC(=O)N(c3ccc(Cl)cc3)C2=O)CC1)N1CCOCC1 (centres undefined)	-76%	2%	5.5%	-36%	13µM*	5%	-5%	0%
C/C=C/c1ccc(OCCCNC2CCCC2)c(OC)c1	-3%	?	13%	-4%	-29%	-3%	0%	?
CN1CCN(c2ccc(C(=O)c3ccccc3)cc2[N+](=O)[O-])CC1	0%	?	-4.1%	2%	-9%	-3%	-14%	?
COC(=O)CCCC(=O)N1CCC(CCC(=O)NCc2ccc(F)cc2)CC1	4%	-1%[46.1 µM]	nt	-9%	10%	nt	7%	-8%[46.1 µM]
CCN(CC)S(=O)(=O)c1cccc(NC(=O)CNC2CCCCCC2)c1	-1%	nt	nt	-3%	-6%	nt	-19%	nt
Fc1ccc(-c2nc3cnccn3c2NC2CCCC2)cc1	-2%	nt	nt	-1%	-5%	nt	-26%	nt
SMILES	NS1 inh	Lassa entry inh	Cruzain Triton	SARS PLP yeast	RE007 growth inh	Cruzain noTriton	StopGo reporter	MARV entry inh
O=C(OCc1nc2ccccc2[nH]1)C1CCCCC1	-5%	1%	-8.3%	-16%	15%	7%	16%	-6%
O=C(/C=C/c1cccc(Cl)c1)NCCN1CCOCC1	1%	-7%	-1.1%	24%	10%	9%	0%	?
OCc1ccnc2c(O)cccc12	8.9µM*	4.1µM*	0.4%	13%	4%	-10%	-12%	?
CN(Cc1ccco1)C(=O)c1ccc(N2CCCC2=O)cc1	4%	11%	-0.8%	0%	0%	-3%	27%	?
COc1ccc(-c2nc(CSc3nnc(C)n4c3cc3occc34)c(C)o2)cc1OC	nt	?	-2.4%	nt	nt	18%	1%	nt
CC(C)(C)NC(=O)Cn1ccc(=N)c2ccccc21	-4%	8%	-5.0%	-1%	10%	-15%	-17%	-1%
C[C@@]12CCC=C[C@H]1[C@H](c1ccc3ccccc3c1)N(Cc1ccccc1)C2=O	-30%	nt	nt	-14%	11%	nt	0%	nt
COc1ccc(CN2CCN(C(=O)c3cccs3)CC2)c(OC)c1OC	-2%	11%	4.1%	16%	13%	-2%	-8%	3%
CC(C)C(=O)c1ccc(O)c(O)c1	3%	nt	nt	0%	-3%	nt	-7%	nt
O=C(NCc1ccc(C(=O)N2CCC3(CC2)OCCO3)cc1)c1cccc(Br)c1	-1%	1%	1.1%	2%	-3%	12%	4%	-15%
CC(C)N(Cc1nc(-c2ccc(Cl)cc2)no1)C(=O)c1ccco1	nt	-2%[46.1 µM]	-1.9%	nt	nt	0%	?	-3%[46.1 µM]
COc1cc(NC(=O)CCS(=O)(=O)c2ccc(Br)cc2)cc(OC)c1	nt	23%[46.1 µM]	-2.6%	nt	nt	-11%	-11%	nt
CCOP(=O)(OCC)C(NC(=O)CC(C)C)C(Cl)(Cl)Cl (centres undefined)	-1%	nt	nt	0%	17%	nt	-6%	-6%[46.1 µM]
O=C1CN(O)C(c2ccccc2Cl)=c2cc(Br)ccc2=N1	1%	nt	nt	1%	10%	nt	-10%	nt
